Source: PubChem (Broad Institute)
Hedgehog: Hh protein inhibition, biochemical readout – plate reader, single concentration, primary screen (AID 588832); Biochemical plate reader assay, Hedgehog inhibition; stronger effect = higher value; inhibition, % at 30.3 µM; 8,000 tested, under 10 active; in the data active = inhibition from about 57%;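 also: 0% = neutral control wells and 100% = positive control wells; cholesterol-driven self-cleavage of fly hedgehog protein by fluorescence polarization; read one hour after cholesterol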
* marks the source's active call; other numbers are inactive results. Not all compounds are listed; rates above refer to the full screens.

SMILES	Hedgehog
CCC(=O)c1ccc(OCC(O)CN2C(=O)NC(C)(C)C2=O)cc1 (centres undefined)	5.5
COc1cc2c(cc1OC)C(C)N(C(=O)c1cc3c(s1)-c1ccccc1OC3)CC2 (centres undefined)	20.8
COc1ccc(CNC(=O)Cn2nc(Cc3cccnc3)c3ccccc3c2=O)cc1	4.4
COc1cccc(C2CC(=O)N3CN(c4ccccc4F)CSC3=C2C#N)c1 (centres undefined)	5.2
NC(=O)C1CCN(C(=O)COc2ccc3ccc(=O)oc3c2)CC1	3.6
Cc1ccc2c(c1)N(CC(=O)NC1CCCC1)C(=O)c1cccnc1O2	16.7
O=C(C1CC(c2ccc(F)cc2)=NO1)N1CCc2ccccc2C1 (centres undefined)	-11.3
CCOC(=O)N1CCN(C(c2ccc(C(C)C)cc2)c2sc3nc(C)nn3c2O)CC1 (centres undefined)	19.1
O=C(NCCN1CCOCC1)C(=O)NCC1OCCN1C(=O)c1ccc(Cl)cc1 (centres undefined)	5.2
CC1=C(C)C(=O)OC(C(C)C2CCC3C4CC=C5CC(OC6OC(COC7OC(CO)C(O)C(O)C7O)C(O)C(O)C6O)CC(O)C5(C)C4CCC23C)C1 (centres undefined)	7.0
O=C(Cc1cccs1)NCc1cn2ccccc2n1	2.8
O=C(C1CC1)N1CCN=C1SCc1ccccc1	3.6
COc1ccc(C2N(c3ccc(Cl)cc3)C(=O)C3CCCN32)cc1 (centres undefined)	5.0
CCC(C)NC(=O)CC1Oc2ccc(C)cc2NC1=O (centres undefined)	19.0
COc1ccc(N2CCN(C(=O)c3sc4nc(-c5ccc(F)cc5)cn4c3C)CC2)cc1	4.6
Cc1cccc(CSc2nnc(Cn3c(=O)sc4ccccc43)n2C)c1	0.0
Cc1cc(N2CCCc3ccccc32)n2ncnc2n1	15.0
O=C(O)CCCC(=O)N1CCc2cc(S(=O)(=O)N3CCc4ccccc43)ccc21	10.5
CC(C)Cc1cc(C(=O)NCc2ccco2)no1	5.3
CCCCc1cc(=O)oc2c(C)c(OCC(=O)N3C[C@H]4C[C@@H](C3)c3cccc(=O)n3C4)ccc12	3.6
COc1ccc(-c2cn3c(C)c(C(=O)N4CCN(c5ccccc5)CC4)sc3n2)cc1	0.9
CCn1cc(C(=O)N2CCOCC2)c(=O)c2cc(S(=O)(=O)N(C)C3CCCCC3)ccc21	15.0
COc1ccc(N2CCN(c3ccc4nnc(CCC(=O)Nc5ccc(C)cc5)n4n3)CC2)cc1	6.8
COc1cccc(NC(=O)CCC(=O)N2CC(C)Oc3ccc(C)cc32)c1 (centres undefined)	8.8
O=C(c1cnc2n(c1=O)CCS2)N1CCN(C(c2ccccc2)c2ccc(Cl)cc2)CC1 (centres undefined)	-0.9
O=C(CCC(=O)N1CCOc2ccccc21)NC1CCCCCC1	1.7
CCCCn1c(CNC(=O)CC)nc2ccccc21	-3.8
CC(=O)c1ccc(O)c(CC=C(C)C)c1O	1.7
Cc1cccc(N2CCN(C(=O)c3cc4c(=O)n(C)c5ccccc5c4n3C)CC2)c1C	5.0
CC1CCCCN1Cc1nc2c(c(=O)n(C)c(=O)n2C)n1Cc1c(F)cccc1Cl (centres undefined)	-1.7
CC(C)c1nc(SCc2c(F)cccc2Cl)c2c(=O)n(C)c(=O)n(C)c2n1	6.4
Cc1cc(NS(=O)(=O)c2ccc(NC(=O)c3cnc4sccn4c3=O)cc2)nc(C)n1	3.6
C[C@@H](C(=O)NCc1c(F)cccc1Cl)N1C(=O)N2CCc3c([nH]c4ccccc34)[C@@]2(C)C1=O	12.3
CCOC(=O)C1CCN(C(=O)CN(c2ccc(OC)cc2)S(=O)(=O)c2c(C)nn(C)c2C)CC1	1.8
Cc1ccc(Cl)cc1N1CCN(S(=O)(=O)c2ccc3[nH]c(=O)ccc3c2)CC1	-0.1
CC1=C(C(=O)NCc2ccco2)C2(CCC(C)CC2)OC1=O (centres undefined)	3.6
CC(C)NC(=O)NCCCCCCS(C)=O (centres undefined)	7.0
CCOCCn1c(CN2CCCC(C)C2)nc2c1c(=O)n(C)c(=O)n2C (centres undefined)	5.0
O=C(Nc1nnc(S(=O)(=O)N2CCCCC2)s1)c1ccccc1Br	5.1
COc1cccc(C2CC(c3ccccc3OC)n3ncnc3N2)c1 (centres undefined)	2.2
COc1ccc(C(c2sc3nc(C)nn3c2O)N2CCCCC2)cc1 (centres undefined)	3.4
O=C(Nc1ccc(F)cc1)C1CCCN(S(=O)(=O)c2ccc3[nH]c(=O)ccc3c2)C1 (centres undefined)	15.4
COc1cccc(CNC(=O)CS(=O)(=O)Cc2nc(-c3ccc(C)cc3)oc2C)c1OC	5.0
O=c1cccc2c1c1cc[nH]c3ccc(=O)n2c31	1.7
Cc1nc2ccc(S(=O)(=O)Nc3cc(-c4nc5cccnc5s4)ccc3C)cc2s1	1.7
COc1ccc(-c2nnc(SCC(=O)N3CCN(c4ccccc4)CC3)o2)cc1OC	5.0
Nc1nc2n(n1)C(c1cccc(Br)c1)CC(c1ccc(F)cc1)N2 (centres undefined)	23.4
Cn1c(Cn2c(=O)sc3ccccc32)nnc1SCC(=O)NCCc1ccccc1	17.4
COc1ccc(NC(=O)C2=CC(c3ccc(OC)cc3)=NS(=O)(=O)N2C)cc1	10.1
O=C1NC(=O)C(Cc2ccc(O)cc2)N1 (centres undefined)	1.8
(cont.)
SMILES	Hedgehog
CCN1CCN(S(=O)(=O)c2c[nH]c(C(=O)OC)c2)CC1	1.9
Cc1oc2c(C)c3oc(=O)c(CCC(=O)NCCCN4CCCC4=O)c(C)c3cc2c1C	3.5
CC(=O)N1c2ccc(S(=O)(=O)N3CCCC3C(=O)Nc3cccc(F)c3)cc2CC1C (centres undefined)	24.3
CCn1c(=NC(=O)CN2C(=O)CCC2=O)sc2c(C)cc(C)cc21	2.7
Cn1cnc2c(NCc3ccco3)ncnc21	5.1
Cc1nn(Cc2nc(-c3cccs3)no2)c(C)c1Br	29.2
COc1cc(C(c2sc3nc(C)nn3c2O)N2CCOCC2)cc(OC)c1OC (centres undefined)	3.6
CC(=O)c1cccc(NC(=O)CC2Oc3ccc(C)cc3NC2=O)c1 (centres undefined)	25.0
COc1ccc(-c2noc(CN3CCN(c4ccccc4)CC3)n2)cc1	12.5
O=C(c1cnn(-c2ccccc2)c1-n1cccc1)N1CCN(C2CCCCC2)CC1	9.5
COc1ccc(-n2c(Cc3cccn3C)nnc2SCC(=O)Nc2ccccc2OC)cc1	5.0
COc1cc(NC(=O)CN2CC(c3ccccc3)CC2=O)cc(OC)c1 (centres undefined)	16.7
CCOc1ccc(-n2c(SCC(=O)NCc3ccco3)nnc2-c2c[nH]c3ccccc23)cc1	4.4
O=C(CSCC(=O)N1CCCc2ccccc21)Nc1nc(-c2ccccc2)cs1	6.8
O=C(CCCCn1c(=O)[nH]c2ccsc2c1=O)NCc1ccc2c(c1)OCO2	0.0
Cc1cc(OCC(=O)N2CCC(C(N)=O)CC2)c2c(C)cc(=O)oc2c1	3.6
COc1ccc(CC(NC(=O)c2ccccc2)C(=O)NCC(=O)O)cc1 (centres undefined)	3.7
CC(C)N(CCNC(=O)c1ccc(NC2=NC3CS(=O)(=O)CC3S2)cc1)Cc1ccco1 (centres undefined)	0.0
COC(=O)C(C)n1cnc2c(nnn2-c2ccccc2)c1=O (centres undefined)	3.5
Cc1c(S(=O)(=O)N2CCc3ccccc3C2)c(=O)n(C)c(=O)n1C	9.1
Cc1nn(C)c(C)c1S(=O)(=O)N1CCC(C(=O)NCCC2=CCCCC2)CC1	0.0
COC1=CC(C)C2CC3OC(O)CC4C(C)=C(OC)C(=O)C(C2(C)C1=O)C34C (centres undefined)	6.9
Cc1cccc(N2C(=O)SC(N(CC(=O)O)c3cccc(C)c3)C2=O)c1 (centres undefined)	1.8
Cc1c(C)c2c(OCC(=O)N3CCC(O)CC3)cc3c(c2oc1=O)CCC(C)(C)O3	5.4
COc1ccc(S(=O)(=O)NCCc2cn3cccc(C)c3n2)cc1OC	-2.6
CSc1nc(-c2ccco2)nn1C(=O)c1ccc(C)cc1	4.2
O=C(OCn1nnc2ccccc2c1=O)c1cc2ccccc2o1	3.6
Cn1c(=O)[nH]c(=O)c2c1nc(SCCN1CCOCC1)n2CCCc1ccccc1	5.8
CSc1ccc(Cn2nnc(C(=O)Nc3ccc(C)c(C)c3)c2N)cc1	16.7
CCc1ccc(NC(=O)CSc2nnc(Cc3cccn3C)n2-c2ccc(OC)cc2)cc1	33.3
Cc1ccc2c(cnn2C(=O)CCC(=O)N2CCCCC2C)c1 (centres undefined)	7.3
CCN1CCSc2ccc(C(=O)NCc3cccc(F)c3)cc21	2.8
COc1ccc(C2c3[nH]c4ccccc4c3C[C@H]3C(=O)N(c4ccccc4C(=O)N4CCC(C(=O)O)CC4)C(=O)N23)cc1 (some centres undefined)	5.2
O=C(CCC(=O)N1CCOc2ccccc21)NCc1ccccn1	3.5
CCCN1CCN(S(=O)(=O)c2cc3c(cc2C)NC(=O)CO3)CC1	10.5
O=C(NC1CCCCC1)C1CC(=O)N(c2ccc(Cl)cc2)C1 (centres undefined)	14.9
Cc1ccc(-c2nc(CSCC(=O)N3CCN(C(=O)c4ccco4)CC3)c(C)o2)cc1	12.5
O=C1CC(c2ccc(O)c(O)c2)Oc2c1ccc(O)c2O (centres undefined)	14.4
CC(C)=CCCC(C)CCO (centres undefined)	3.5
O=C(NCCn1ccc2ccccc21)C1CCCCC1	6.8

Two entries picked at random from the list so far:
SMILES	Hedgehog
O=C1CC(c2ccc(O)c(O)c2)Oc2c1ccc(O)c2O (centres undefined)	14.4
CCN1CCSc2ccc(C(=O)NCc3cccc(F)c3)cc21	2.8

Later entries:
SMILES	Hedgehog
Cc1ccccc1S(=O)(=O)Cc1ccc(C(=O)NC(C)c2ccc3c(c2)OCCO3)o1 (centres undefined)	25.0
CCOC(=O)N1CCC(NC(=O)c2cc3ccccn3n2)CC1	8.0
CC(CNC(=O)CCC(=O)N1CCOc2ccc(Cl)cc21)c1ccccc1 (centres undefined)	3.8
O=C(NCCc1cn2ccccc2n1)c1ccc(Br)o1	1.8
CC(=O)[C@H]1[C@H]([C@H](O)[C@H](O)CO)O[C@](O)(C(=O)O)C[C@@H]1O	8.2
CCOC(=O)c1ccccc1NC1c2ccccc2C(=O)N1c1cc(C)ccn1 (centres undefined)	9.5
Nc1nc2n(n1)C(c1cccc(Cl)c1)CC(c1ccc(F)cc1)N2 (centres undefined)	14.9
O=C(c1cnc2n(c1=O)CCS2)N1CCN(c2ccc([N+](=O)[O-])cc2)CC1	0.9
COc1ccc(OC)c(/C=C2\Oc3cc(OCC(=O)N4CCC(C(=O)O)CC4)ccc3C2=O)c1	3.6
Cc1c(OCC(=O)N2CCC(C(=O)O)CC2)ccc2c1oc(=O)c1ccccc12	8.8
CCCOc1ccc(CNC(=O)c2ccc3c(c2)N(CC)CCS3)cc1	6.8
COC(=O)c1ccccc1NC(=O)Cn1cc2c(n1)CCC(C)C2 (centres undefined)	10.0
CCOc1ccc(CCNC(=O)CCC(=O)N2CCSc3ccccc32)cc1OCC	16.7
CC1(C)CCC[C@@]2(C)CC=C(C(=O)O)[C@@H]3C[C@]312	1.6
NC(=O)CSc1cn(CCNC(=O)c2cccs2)c2ccccc12	6.8
Cc1cc(NC(=O)CSc2nnc(-c3c[nH]c4ccccc34)n2-c2ccc(F)cc2)no1	5.3
CCC(C(=O)OC)n1cnc2c(nnn2-c2cccc(Cl)c2)c1=O (centres undefined)	3.6
COc1ccc(S(=O)(=O)NCC(c2cccnc2)N2CCN(C)CC2)cc1C (centres undefined)	6.8
COc1ccccc1N1C(=O)C2C(c3ccccc3F)NN(C(=O)c3ccc(C)cc3)C2C1=O (centres undefined)	8.3
CC1Cn2c(nnc2-c2ccccc2O)S1 (centres undefined)	15.4
Cc1ccccc1-c1nc(CS(=O)(=O)CC(=O)N2CCc3ccccc3C2)c(C)o1	14.9
O=C1/C(=C/c2ccc3c(c2)OCO3)Oc2cc(OCC(=O)N3CC(O)C[C@H]3C(=O)O)ccc21 (some centres undefined)	0.0
O=C(NCc1ccc2[nH]c3c(c2c1)CCCC3)c1ccc(S(=O)(=O)N2CCCCC2)cc1	8.7
COCCNC(=O)CN1C(=O)CC(C)(C)S(=O)(=O)c2ccccc21	12.5
Cn1c(Cn2c(=O)sc3ccccc32)nnc1SCC(=O)N1CCCc2ccccc21	11.1
Cc1cccc(/C=C/c2onc(C)c2S(=O)(=O)N2CCC(C(=O)NC(C)C)CC2)c1	14.9
C[C@@H](NC(=O)C1(c2ccccc2)CCN(C(=O)OC(C)(C)C)CC1)C(=O)N[C@@H](C(=O)O)c1ccccc1	5.4
Cn1c(C(=O)N2CCCC(C(=O)N3CCN(C(=O)c4ccco4)CC3)C2)cc2sccc21 (centres undefined)	14.9
COc1ccccc1N1CCN(C(=O)c2onc(C)c2Cl)CC1	5.2

Some of these compounds in order of the Hedgehog value, lowest first.
| SMILES | Hedgehog |
| --- | --- |
| O=C1/C(=C/c2ccc3c(c2)OCO3)Oc2cc(OCC(=O)N3CC(O)C[C@H]3C(=O)O)ccc21 (some centres undefined) | 0.0 |
| COc1ccccc1N1CCN(C(=O)c2onc(C)c2Cl)CC1 | 5.2 |
| C[C@@H](NC(=O)C1(c2ccccc2)CCN(C(=O)OC(C)(C)C)CC1)C(=O)N[C@@H](C(=O)O)c1ccccc1 | 5.4 |
| O=C(NCc1ccc2[nH]c3c(c2c1)CCCC3)c1ccc(S(=O)(=O)N2CCCCC2)cc1 | 8.7 |
| Cn1c(Cn2c(=O)sc3ccccc32)nnc1SCC(=O)N1CCCc2ccccc21 | 11.1 |
| COCCNC(=O)CN1C(=O)CC(C)(C)S(=O)(=O)c2ccccc21 | 12.5 |
| Cc1ccccc1-c1nc(CS(=O)(=O)CC(=O)N2CCc3ccccc3C2)c(C)o1 | 14.9 |
